# Rango complex inh = qHTS Assay for Inhibitors of Rango (Ran-regulated importin-beta cargo) - Importin beta complex formation | 0.031% of 340,000 active | Importin subunit beta-1 (Homo sapiens), Q14974 | Rango CFP/YFP FRET sensor + importin beta, 45 min | Potency, µM (titrated, usually from 92.2 µM), without a hit: at the top dose inhibition of complex formation; active = rising FRET ratio curve, often small or poorly fitted; inconclusive = mostly compound fluorescence or quenching in the first reads; inactive = flat curves in all reads;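 further: potency means the concentration at half of the fitted maximal effect; 0% = DMSO wells and 100% = buffer wells lacking importin beta; nearly all actives have a fitted effect of over 15% in size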
#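 FRET biosensor Rango (snurportin 1 IBB between N-terminal EYFP and C-terminal Cerulean), 50 nM in PBS/1 mM DTT/0.02% Tween-20/0.1% BSA, preincubated 5 min RT with compound; 0.125 microM importin beta added, 45 min RT, CFP/YFP FRET ratio read.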
# Rango release inh = qHTS Assay for Inhibitors of RanGTP induced Rango (Ran-regulated importin-beta cargo) - Importin beta complex dissociation; Biochemical FRET Rango-importin beta, RanGTP-induced dissociation; 0.071% of 340,000 active; Snurportin-1 (Homo sapiens) + GTP-binding nuclear protein Ran (Homo sapiens) + Importin …; Potency, µM (series often up to 46.1 µM), without a hit: at the highest dose activity change, negative = inhibition; active means falling FRET ratio curve, often poorly fitted, with flat reads before Ran was added; inconclusive means other falling curves, or compound fluorescence or quenching; inactive means flat or rising ratio curve;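 further: potency means the concentration at half of the fitted maximal effect; % of control where 0% means no effect; nearly all actives have a fitted effect of over 45% in size; -100% = wells without RanGTP and RCC1; the record marks most hits as doubtful in a second field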
#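 FRET read at 45 min, room temperature: inhibitors block the CFP/YFP signal rise when RanGTP (0.6 uM Ran, 2 mM GTP, 0.2 uM RCC1) frees Rango (0.1 uM) from importin beta (0.25 uM). Pre-read after 5 min compound exposure flags interference.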
# miR-21 reporter = qHTS Assay for Modulators of miRNAs and/orActivators of miR-21; HeLa miR-21 FLuc reporter, luciferase, 48 h; AID 2288, 2010; Potency, µM (doses to about 38.3 µM), without a hit: at the top dose reporter change, positive = more light; 340,000 tested, under 10 active; active = well fitted rising curve with a large enough effect; inconclusive = small, poorly fitted or top-dose-only effect; inactive = no such curve, though single readings can be large or run the other way;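 further: % of control where 0% means no effect; miR-21 action dims this reporter so a rising signal means less miR-21 action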
#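 Using DMEM plus 10% FBS, HeLa miR-21-FLuc cells are incubated with test compounds (final up to about 40uM) for 48 hours; firefly luciferase signal is then imaged following reagent-mediated lysis.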
# GLA inh pH 4.5 = qHTS Assay for Inhibitors of Human alpha-Galactosidase at pH 4.5. activity change, negative = inhibition, % at 105 µM. Alpha-galactosidase A (Homo sapiens), P06280. 230,000 tested, under 10 active. purified enzyme, 4-MU-alpha-Gal fluorescence, pH 4.5; inconclusive = small, poorly fitted or top-dose-only inhibition, or a rising curve; inactive = flat fitted curve, though single readings scatter; no compound was filed as active;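 further: 0% = full activity with enzyme and -100% = basal without enzyme; dose as in the result columns while the protocol names 77 µM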
# Target sequence (P06280 whole entry, looked up): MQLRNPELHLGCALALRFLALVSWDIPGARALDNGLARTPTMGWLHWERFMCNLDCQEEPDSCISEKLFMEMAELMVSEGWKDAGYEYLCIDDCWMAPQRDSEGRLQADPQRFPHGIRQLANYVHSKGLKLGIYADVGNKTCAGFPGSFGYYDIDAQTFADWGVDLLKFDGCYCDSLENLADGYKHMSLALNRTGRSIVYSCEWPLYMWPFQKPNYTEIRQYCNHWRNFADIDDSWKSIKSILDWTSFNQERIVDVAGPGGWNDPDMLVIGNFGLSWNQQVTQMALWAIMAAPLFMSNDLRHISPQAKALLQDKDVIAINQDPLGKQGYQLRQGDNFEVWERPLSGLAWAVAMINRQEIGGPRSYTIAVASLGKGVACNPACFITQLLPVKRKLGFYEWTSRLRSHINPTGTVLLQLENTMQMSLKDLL
# Active calls of the source: *; u = inconclusive; x = no result given; & = joins results of further samples; [ ] = remark or other dose.
SMILES,Rango complex inh,Rango release inh,miR-21 reporter,GLA inh pH 4.5
CC(NC(=O)c1cc(S(=O)(=O)N2CCOCC2)ccc1F)c1ccc(-n2ccnc2)cc1 (stereo not given),-3.5%,10%,x,x
COc1cccc2c1cc1c(=O)n(CC(=O)N3CCN(c4cccc(C)c4C)CC3)nc(C)n12,-0.1%,17%,0%,x
Cc1ccc(S(=O)(=O)NNC(=O)C(=O)NNS(=O)(=O)c2ccc(C)cc2)cc1,-1.8%,-6%,0%,-11
O=C1CCCN2N=C(SCC(=O)Nc3ccc(Cl)cc3)SC2=N1,-1.7%,-14%,-3%,x
CC1Cc2cc(S(=O)(=O)N3CCC(C(=O)Nc4ccccn4)CC3)ccc2N1C(=O)C1CCC1 (stereo not given),4.4%,-16%,24%,x
COc1ccc(Nc2nc(N)nc(CCl)n2)cc1,-1.6%,-8%,17%,0
O=C(COC(=O)CCNS(=O)(=O)c1ccc(Cl)cc1)NCc1ccco1,u,39%,-5%,-12
Cc1nc(NC(=O)CSc2nnc(-c3ccccc3)c(-c3ccccc3)n2)c(Cl)cc1Cl,5.4%,10%,-10%,-2
Cc1ccc2oc(C(Cl)(Cl)Cl)cc(=O)c2c1,-4.8%,-17%,24%,-5
Cc1occc1-c1nnc(SCC(=O)NC(C)(C)C)n1CC(C)C,-1.4%,19%,2%,6
COc1cccc(C(C#N)N2CCOCC2)c1 (stereo not given),6.4%,2%,1%,-1
Cc1cc[n+](-c2[nH]c(=O)sc2/C=N/NC(=O)c2ccccc2[O-])cc1C,6.2%,-10%,-1%,-9
CCOc1ccc2[nH]cc(S(=O)(=O)c3ccc(C)cc3)c(=O)c2c1,-2.9%,3%,12%,12
Cc1ccc(N2CSC3=C(C#N)C(c4cccs4)CC(=O)N3C2)cc1 (stereo not given),u,u,-31%,5
CCc1ccc2[nH]c(=O)c(CN(CCO)C(=O)NCc3ccccc3)cc2c1,-1.3%,8%,6%,-1
O=C(/C=C/c1ccccc1)Nc1ccc(N2CCCCC2)cc1,-0.1%,-4%,-55%,8
COc1ccc(OC)c(S(=O)(=O)N2Cc3ccccc3CC2C(=O)Nc2nccs2)c1 (stereo not given),3.8%,14%,-47%,-4
Cc1nnc(SCC(=O)NC2CCCCCC2)n1C,u,2%,1%,x
O=C(COc1ccc2ccccc2c1)Nc1ccncc1,5.3%,2%,u,6
COc1ccc(Cl)cc1NC(=O)COC(=O)CCCN1C(=O)c2ccccc2C1=O,0.8%,-7%,-5%,-4
CC(C)NCC(O)c1ccc(NS(C)(=O)=O)cc1 (stereo not given),-2.8%,-8%,21%,-1&-2
COc1ccc(NC(=O)CSc2nc(O)cc(=O)n2-c2ccccc2OC)cc1,-3.6%,1%,15%,1
Cn1cccc1C(=O)/C(C#N)=C/c1ccc(F)cc1,u,u,0%,x
Cc1ccc(S(=O)(=O)NCc2ccc(C(=O)N3CCCC3)cc2)cc1,-4.7%,17%,-3%,6
Cc1ccc(C)c(C(=O)C(C)Sc2nc3nn(-c4ccccc4)c(=O)c-3c3n2CCCCC3)c1 (stereo not given),1.1%,10%,-5%,x
# New compounds follow:
SMILES,Rango complex inh,Rango release inh,miR-21 reporter,GLA inh pH 4.5
COC(=O)N/N=C\c1cccc(OC(=O)c2cccs2)c1,-2.6%,2%,-10%,2
COC(=O)C(C)Oc1ccc2c(-c3cccc([N+](=O)[O-])c3)cc(=O)oc2c1 (stereo not given),-2.4%,8%,3%,4
COc1ccc(CN(CC(=O)NC(C)C)C(=O)CCC(=O)Nc2nccs2)cc1,-3.7%,-6%,-1%,x
O=C1CCC(=O)N1CC(O)COc1ccccc1 (stereo not given),-0.4%,-13%,-5%,-1
O=C(Nc1cccc(O)c1)c1cccc(NC(=O)c2cccs2)c1,0.5%,12%,14%,x
CCN1CCCC1CNC(=O)CCc1nc(-c2ccc(C)cc2)no1 (stereo not given),-5.3%,-25%,2%,2
CCOc1ccc(C(=O)NCC(=O)OC(C)C(=O)NCc2ccco2)cc1OCC (stereo not given),-2.1%,-3%,0%,6
CCOCCCn1c(=NC(=O)c2ccco2)c(C(=O)OCC)cc2c(=O)n3cccc(C)c3nc21,u,u,1%,11
COc1ccc(C2=NCN(c3ccc(C)cc3)C(=S)N2)cc1,-1.5%,-15%,-44%,15
O=C(O)/C=C\C(=O)Nc1ccc(Oc2ccc(Br)cc2)cc1,-1.4%,7%,1%,11
COc1ccc(CNC(=O)NC2CCCCC2)cc1,-1.1%,0%,-38%,5
S=c1[nH]c(-c2ccccc2)cn1-c1ccccc1,-0.7%,-16%,-17%,x
Cc1ccc(C)c(-n2cc(CN3CCCN(C=O)CC3)c(-c3ccccc3)n2)c1,-0.4%,34%,4%,-2
Cc1nc2scc(-c3cccs3)c2c(=O)o1,-1.4%,9%,-1%,4
O=C(CC(C(=O)O)C1CCCO1)NCCc1ccc2c(c1)OCO2 (stereo not given),2.1%,15%,2%,3
COc1ccc(N2C(=O)c3ccccc3NC2c2ccc(OC)c(Cn3cc([N+](=O)[O-])cn3)c2)cc1 (stereo not given),-1.5%,-6%,-49%,-1
CCCOC(=O)/C(C)=N\NC(=O)c1ccco1,-1.9%,1%,-40%,-1
O=C(CCC(=O)Nc1ccccc1Cl)NNS(=O)(=O)c1ccc(Cl)cc1,-2.9%,16%,-2%,x
C=C1SC(=Nc2ccccc2Cl)N(C(=O)c2sc3ccccc3c2Cl)C1(C)C,2.3%,2%,-61%,1
COc1ccc(CNC(=O)C2CCN(S(=O)(=O)c3ccc4c(c3)CC(C)N4C(C)=O)CC2)cc1 (stereo not given),u,-12%,9%,x
Cc1ccc2cc3c(NC(=O)c4ccco4)nn(CC(C)C)c3nc2c1,u,u,-5%,3
CCN(CC)C(=O)CSc1nc2cc3c(cc2c(=O)n1CCCC(=O)NCCc1ccc(OC)c(OC)c1)OCO3,2.0%,5%,-2%,6[21.1 µM]
CCCCN(C)C(=O)CCCc1c[nH]c2ccccc12,-5.2%,-9%,-60%,3
CSc1cccc(N=C2C(=O)Nc3ccccc32)c1,-0.7%,2%,-16%,x
CCOC(=O)N1CCN(C(=O)c2cn(CC)c3ccc(S(=O)(=O)N4CCCCC4)cc3c2=O)CC1,u,26%,-2%,0
# The list continues.
SMILES,Rango complex inh,Rango release inh,miR-21 reporter,GLA inh pH 4.5
CCc1ccc(C(=O)COC(=O)c2cccs2)cc1,u,-1%,-57%,1
CC(C)n1c(O)c(N=NC(=O)C2COc3ccccc3O2)c2ccccc21 (stereo not given),1.2%,2%,0%,1
O=C(CN1C(=O)NC2(CCCC2)C1=O)NCc1cccc(Cl)c1,-0.2%,-5%,x,x
Cc1ccc(Cl)c(OCC(=O)Nc2ccc3c(c2)OCCO3)c1,-0.9%,11%,-31%,-3
O=C(CNC(=O)/C=C/c1ccccc1)N=Nc1c(O)n(Cc2ccccc2)c2ccccc12,x,x,-7%,-6
Cc1c(N=Cc2cc3c(cc2[N+](=O)[O-])OCO3)cccc1[N+](=O)[O-],0.6%,3%,x,x
COc1ccccc1CNC(=O)COC(=O)c1cc2ccccc2o1,4.8%,0%,x,x
CC(C)CC(NC(=O)C(NC(=O)C1CCC(=O)N1C(=O)OCc1ccccc1)C(C)C)C(=O)N1CCCC1C(N)=O (stereo not given),-1.6%,-11%,-2%,x
COC(=O)C1=NN(c2ccccc2OC)C2C(=O)N(c3ccccc3OC)C(=O)C12 (stereo not given),u,-27%,-2%,-4
Cc1ccc(-n2c(C)nnc2SC(C)C(=O)N2CCCC2)cc1 (stereo not given),-2.3%,-10%,1%,x
COc1ccccc1-n1cnc2cc(NC(C)=O)ccc21,u,21%,-14%,-9
Cc1c(C)[n+](=O)c2c(n1[O-])CCCCC2,-1.7%,-9%,-3%,-1
N#CCCn1cc(C(=O)CN2C(=O)NC3(CCCCCC3)C2=O)c2ccccc21,0.0%,-12%,x,x
CCOC(=O)C(C)Sc1nnc(NC(=O)c2cccc([N+](=O)[O-])c2C)s1 (stereo not given),5.6%,-3%,-4%,9
CCc1c(O)nc(SCC(N)=O)n(-c2ccccc2F)c1=O,-0.4%,-6%,10%,0
CN(C(=O)CCc1nnc(CCCCc2ccccc2)o1)C1CC(C)(C)NC(C)(C)C1,-1.0%,-6%,-4%,1
Cc1ccc(N2NC(=O)/C(=C\c3cc4c(cc3[N+](=O)[O-])OCO4)C2=O)cc1C,0.3%,4%,-3%,-5
CCOC(=O)Cc1nnc(NC(=O)c2ncn[nH]2)s1,-6.1%,-9%,-4%,-2

# Structural class, the entries above containing a Cl atom
SMILES,Rango complex inh,Rango release inh,miR-21 reporter,GLA inh pH 4.5
O=C1CCCN2N=C(SCC(=O)Nc3ccc(Cl)cc3)SC2=N1,-1.7%,-14%,-3%,x
COc1ccc(Nc2nc(N)nc(CCl)n2)cc1,-1.6%,-8%,17%,0
O=C(COC(=O)CCNS(=O)(=O)c1ccc(Cl)cc1)NCc1ccco1,u,39%,-5%,-12
Cc1nc(NC(=O)CSc2nnc(-c3ccccc3)c(-c3ccccc3)n2)c(Cl)cc1Cl,5.4%,10%,-10%,-2
Cc1ccc2oc(C(Cl)(Cl)Cl)cc(=O)c2c1,-4.8%,-17%,24%,-5
COc1ccc(Cl)cc1NC(=O)COC(=O)CCCN1C(=O)c2ccccc2C1=O,0.8%,-7%,-5%,-4
O=C(CCC(=O)Nc1ccccc1Cl)NNS(=O)(=O)c1ccc(Cl)cc1,-2.9%,16%,-2%,x
C=C1SC(=Nc2ccccc2Cl)N(C(=O)c2sc3ccccc3c2Cl)C1(C)C,2.3%,2%,-61%,1
O=C(CN1C(=O)NC2(CCCC2)C1=O)NCc1cccc(Cl)c1,-0.2%,-5%,x,x
Cc1ccc(Cl)c(OCC(=O)Nc2ccc3c(c2)OCCO3)c1,-0.9%,11%,-31%,-3

# These rows are one share of the data; count on the stated rates, not on these rows.
